High-throughput results: PubChem, National Center for Advancing Translational Sciences (NCATS)
PINK1 modulator: A Quantitative High throughput Screen to Identify Chemical Modulators of PINK1 Expression; PINK1 immunofluorescence, high-content cytometry, 24 h; Potency, µM (top dose mostly 76.6 µM), for inactives: at the highest dose activation (PINK1 increase), usual class: activators; hit rate 0.2% among 410,000; AID 624263, 2012; active = well fitted activation curve with a large enough effect; inconclusive = small, poorly fitted or top-dose-only effect; inactive = flat fitted curve, though single readings scatter; cell line not stated here;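 further: potency means the concentration at half of the fitted maximal effect; % of control where 0% means no effect; nearly all actives have a fitted effect of over 65% in size; a mitochondrial uncoupler was the plate control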
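Measures PINK1 amount and localization on or inside mitochondria by immunofluorescence. Stable cells get compounds at 5 concentrations for 24 hours before fixation and staining; CCCP controls included.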
ClpP mod: qHTS Assay for Activators of ClpP; ATP-dependent Clp protease proteolytic subunit (Bacillus subtilis (strain 168)), P80244; purified B. subtilis ClpP, FRET peptide cleavage, 20 min; Potency, µM (titrated, usually from 57.5 µM), without a hit: top-dose activity change, negative = active; hit rate 1.9% among 340,000; active = well fitted falling curve with a large enough effect; inconclusive = small, poorly fitted or top-dose-only effect; inactive = no such curve, though single readings can be large or run the other way; further: potency means the concentration at half of the fitted maximal effect; the source files actives as falling curves though it sought activators and does not explain the sign; nearly all actives have a fitted effect of over 65% in size; many hits overshoot -100%
Target sequence (P80244 whole entry, looked up): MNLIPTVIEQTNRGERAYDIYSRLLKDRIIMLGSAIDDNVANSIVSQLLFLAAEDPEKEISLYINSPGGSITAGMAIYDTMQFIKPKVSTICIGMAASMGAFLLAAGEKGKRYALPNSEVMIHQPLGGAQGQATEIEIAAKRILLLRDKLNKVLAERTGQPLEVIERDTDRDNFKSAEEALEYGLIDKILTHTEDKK
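ClpP 10 microg/mL final, pH 8 Tris/KCl buffer with BSA, glycerol, Tween-20; compound pinned in; FRET-FV substrate; RT 20 min; Ex320/Em430; ΔFRET vs ADEP 5.8 microM, DMSO, no enzyme.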
D2 ag: Beta-Arrestin HTS for Positive Allosteric Modulators of the Human D2 Dopamine Receptor: Agonists. activation, % (no concentration beside the values). AID 624465, 2012. D(2) dopamine receptor (Homo sapiens), P14416. hit rate 0.084% among 360,000. DiscoveRx PathHunter D2 beta-arrestin, luminescence, 90 min; 100% = 57 uM dopamine signal; in the data active = activation above about 40%; inconclusive = about 15% to 40%; inactive = below about 15%; further: compound concentration not given in the record; the text of the record calls up to 30% inactive
Target sequence (P14416 whole entry, looked up): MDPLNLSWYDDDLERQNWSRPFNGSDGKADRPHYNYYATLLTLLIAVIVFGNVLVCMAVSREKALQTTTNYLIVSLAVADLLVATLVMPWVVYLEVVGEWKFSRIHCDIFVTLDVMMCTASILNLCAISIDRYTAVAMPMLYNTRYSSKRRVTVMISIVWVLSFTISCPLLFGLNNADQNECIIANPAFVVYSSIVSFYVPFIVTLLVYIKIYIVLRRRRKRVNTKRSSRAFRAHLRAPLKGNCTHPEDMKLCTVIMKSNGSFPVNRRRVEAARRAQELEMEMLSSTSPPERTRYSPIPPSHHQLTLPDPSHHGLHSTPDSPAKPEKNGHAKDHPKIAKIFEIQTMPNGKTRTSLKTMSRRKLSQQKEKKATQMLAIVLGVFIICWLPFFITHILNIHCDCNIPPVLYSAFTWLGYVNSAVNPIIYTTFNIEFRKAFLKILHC
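DiscoveRx PathHunter D2 beta-arrestin cells (2,100/well) attached overnight, then compound-stimulated 90 min at 37 C in HBSS/10 mM HEPES/0.1% Tween-20 buffer; beta-galactosidase complementation read by luminescence after 1 h at ambient temperature. Dopamine 57 uM final (EC100) as control.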
gsp antag: qHTS for Antagonists of gsp, the Etiologic Mutation Responsible for Fibrous Dysplasia/McCune-Albright Syndrome: qHTS. gsp-mutant cells, cAMP HTRF, 30 min; control for the full effect not named in the record. Potency, µM (titrated, usually from 76.9 µM), without a hit: at the top dose activity change, negative = inhibition, actives largely listed as inhibitors. hit rate 0.4% among 340,000. AID 624288, 2012; active = falling curve of any shape with a large fitted effect; inconclusive = falling curve, mostly with a smaller effect; inactive = flat or rising curve; cell line not stated here;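 further: intracellular cAMP measured with PDE inhibitor Ro 20-1724 present during compound exposure; potency means the concentration at half of the fitted maximal effect; on the % scale 0 is the no-effect control and ±100 the full control effect; nearly all actives have a fitted effect of over 65% in size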
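HTRF cAMP measurement after 30 min RT detection following 30 min, 37C compound treatment alongside […] (added as 300 uM solution) in G418-selected cells seeded at 2000/well and grown 16–24 h.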
gsp agonist: qHTS for Agonist of gsp, the Etiologic Mutation Responsible for Fibrous Dysplasia/McCune-Albright Syndrome: qHTS | gsp mutant cells, cAMP HTRF, 30 min; control for the full effect not named in the record | hit rate 0.13% among 340,000 | AID 624287, 2012 | Potency, µM (titrated, usually from 76.9 µM), for the others: top-dose activation (cAMP increase), usual class: activators; active = well fitted activation curve with a large enough effect; inconclusive = small, poorly fitted or top-dose-only effect, or another doubt; inactive = no such curve, though single readings can be large or run the other way; cell line not stated here;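 further: phosphodiesterase inhibitor Ro 20-1724 added with compounds to block cAMP breakdown; potency means the concentration at half of the fitted maximal effect; nearly all actives have a fitted effect of over 60% in size; about a fifth of the inactives were tested at one dose only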
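Cells stably selected in G418 were plated at 2000/well, grown 16-24 hr, then given compounds in DMSO with the PDE inhibitor […] (300 uM solution added) for 30 min at 37C; cAMP was read by HTRF.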
Menin MLL FP FL: qHTS Assay for Inhibitors Targeting the Menin-MLL Interaction in MLL Related Leukemias: Competition With Fluorescein Labeled MLL-derived Peptide. AID 1766, 2009. 290,000 tested, under 10 active. FP activity change, % at 61.4 µM. Fluorescence polarization, fluorescein-MLL peptide displacement from menin; inconclusive = falling polarisation curve, or a change in total fluorescence; inactive = total fluorescence flat and polarisation flat or rising; no compound was filed as active; the % refers to the polarisation; negative = inhibition;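 further: % of control where 0% means no effect; inhibitors lower the polarisation; unlabelled MLL peptide was the positive control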
Sfp PPTase inh: qHTS Assay for Inhibitors of Bacillus subtilis Sfp phosphopantetheinyl transferase (PPTase); Biochemical Sfp PPTase activity, qHTS; hit rate 3.5% among 310,000; AID 1490, 2009; 4'-phosphopantetheinyl transferase ffp (Bacillus subtilis), Q9F4F7; Potency, µM, inactives show max response, negative = inhibition, most hits filed as inhibitors; active means well fitted inhibition curve with a large enough effect; inconclusive means small, poorly fitted or top-dose-only effect, or another doubt; inactive means no such curve, though single readings can be large or run the other way;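 further: the enzyme is Sfp with the accession as filed and its product quenches rhodamine fluorescence; potency means the concentration at half of the fitted maximal effect; 0% = enzyme reaction without inhibitor and -100% = no enzyme wells; top concentration of the series not given in the record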
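After 15 min at room temperature with compound, 15 nM Sfp received 5 uM rhodamine-CoA plus 12.5 uM BHQ-2-ybbR (50 mM Hepes pH 7.6, 10 mM MgCl2). Rate came from the fluorescence difference over 30 min, ex 525/em 598 nm.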
Numbers without * were called inactive; u = inconclusive; x = not tested or not shown; [ ] = remark or other dose.

SMILES | PINK1 modulator | ClpP mod | D2 ag | gsp antag | gsp agonist | Menin MLL FP FL | Sfp PPTase inh
COC(=O)[C@@]12CCCN1[C@H](c1ccc(SC3CCCCC3)cc1)[C@H]1C(=O)N(C)C(=O)[C@H]12 | 1.9% | -0.9% | -1.8 | -6% | x | x | x
COc1cc(/C=N/NC(N)=S)ccc1OCC(=O)N1CCOCC1 | -0.7% | -0.2% | -6.8 | 7% | -14%[15.4 µM] | -2.2 | u
COc1ccc(S(=O)(=O)N2CCCCC2)cc1NS(=O)(=O)c1ccccc1 | 0.3% | -11% | -2.2 | 1% | 2%[15.4 µM] | x | x
Cc1cccc(NC(=O)CSCC(=O)N=c2sccn2C)c1 | -0.5% | -2.5% | -1.6 | 2% | 8%[15.4 µM] | x | x
O=C(CSc1ccccc1C(=O)N1CCN(c2ccccc2)CC1)N1CCCC1 | 0.0% | -1.3% | 2.4 | 12% | 7% | x | x
CCCC1(CC)C(=O)NC(=O)N=C1N (stereo not drawn) | -1.7% | x | -3.0 | 10% | 8% | x | x
COc1ccc(CN2CCCC(C(=O)N(C)Cc3ccccc3)C2)cc1OC (stereo not drawn) | -0.7% | -6.1% | -2.2 | -8%[15.4 µM] | 5% | 5.0 | -26%
COc1ccc(C(CC(=O)O)c2cc(OC)c(OC)c(OC)c2)cc1OC (stereo not drawn) | -0.8% | 32µM* | -6.3 | 1% | -9% | x | x
Cc1cccc(N=C2NC(=O)/C(=C/c3cccn3C)S2)c1 | 8.6% | 0.6% | -6.4 | -12% | -1% | u | -14%
CCSc1nnc(NC(=O)C2CC(=O)N(Cc3ccc(C)cc3)C2)s1 (stereo not drawn) | 0.3% | x | 0.5 | -2% | 11% | -0.6 | u
C/C(=N\NC(=O)COc1ccc(C)cc1C(C)C)c1ccc(-n2ccnc2)cc1 | 1.3% | -0.2% | -1.1 | u | 6% | 2.5 | -13%
C=CCNC(=O)c1onc(CSc2cc(C)cc(C)c2)c1C(=O)NCC=C | 0.0% | -0.8% | 2.0 | -26% | x | -1.4 | 0%
C/C(Cn1cnc([N+](=O)[O-])n1)=N/NC(=O)COc1ccccc1Cl | -0.3% | x | -2.5 | 13% | 6%[15.4 µM] | -1.7 | -2%
N#Cc1ccccc1/C=N/Nc1nc(-c2ccccc2)c2cc(Cl)ccc2n1 | -0.7% | 0.4% | -5.2 | 0% | -3%[15.4 µM] | -0.4 | 21%
COc1cc(OC)cc(C(=O)OCC(=O)N(C)c2ccccc2)c1 | 2.5% | x | -3.9 | 0% | 26% | 3.6 | 10%
O=[N+]([O-])c1cc(C(F)(F)F)ccc1NCCCN1CCOCC1 | 1.0% | x | -4.1 | -8% | 24%[15.4 µM] | -4.0 | 13%
CCC1CCC/C1=N\NC(=O)c1cc(C)[nH]n1 (stereo not drawn) | x | 0.1% | 0.9 | -3% | 1% | 0.2 | 6%
Cc1ccc(S(=O)(=O)Nc2ccc(SC(F)F)cc2)c(C)c1 | 10% | u | -0.2 | -8% | 3% | 3.3 | 4%
NC(CSCc1ccccc1)C(=O)Nc1ccc([N+](=O)[O-])cc1 (stereo not drawn) | 2.1% | -1.7% | 6.6 | x | x | x | x
CCN(C[C@H]1N[C@@](CC)(C(=O)OC)[C@H]2C(=O)N(C)C(=O)[C@@H]12)S(=O)(=O)c1ccc(C)cc1 | 0.3% | 4.2% | 0.3 | 8% | x | x | x
Cc1ccc(S(=O)(=O)N(CC(=O)Nc2cccnc2)c2cccc([N+](=O)[O-])c2)cc1 | 6.8% | -1.8% | -1.3 | 10% | -4% | x | -7%
O=C(OC(C(=O)NCc1cccs1)c1ccccn1)c1cccs1 (stereo not drawn) | 2.6%[38.3 µM] | 0.0% | 0.5 | 12% | -3% | -2.3 | -14%
CCc1nc2c(OCC(=O)N3CCOCC3)cccn2c1N(C=O)Cc1ccccc1 | 1.4% | -1.1% | -3.8 | x | x | x | x
CC(C)(C)NC(=O)C(=O)NNC(=O)c1ccccc1Br | 3.6% | x | -4.2 | 3% | 4%[15.4 µM] | -0.3 | -3%
C=CCn1c(N2CCOCC2)nc2c1c(=O)[nH]c(=O)n2C | -0.8% | x | -0.9 | x | -7%[15.4 µM] | -0.1 | 16%
O=C(COc1ccc2ccc(=O)oc2c1)NCCN1CCOCC1 | -0.3% | 3.5% | -3.5 | x | -41% | x | x
Cc1cccc2nc(CSc3nc4[nH]ncc4c(=O)n3-c3ccccc3Cl)cc(=O)n12 | 1.2% | -4.5% | 2.2 | 19% | u | 1.4 | 5%
O=C1CCC(C(=O)N(CCO)Cc2ccccc2)CN1CC1CCCCC1 (stereo not drawn) | -1.6% | -0.6% | -4.6 | -18% | -20% | 0.5 | 5%
O=C(CN1C(=O)C2CCCCC2C1=O)N1CCN(c2ccc(F)cc2)CC1 (stereo not drawn) | 1.7% | x | -1.1 | 10% | 18% | -3.6 | 13%
COC(=O)C(CC(C)C)NC(=O)c1cccs1 (stereo not drawn) | 1.4% | -2.5% | -5.0 | -1% | -10%[15.4 µM] | 1.2 | 4%
CO/N=C/c1ccc(Sc2ccc(C)cc2)c([N+](=O)[O-])c1 | 7.5% | 1.6% | -0.5 | 2% | 3% | 5.5 | -4%
Cc1ccccc1-c1cccc(CN2CCN(C)C(CCO)C2)c1 (stereo not drawn) | -0.6% | -0.5% | -5.3 | 19% | 8% | 0.7 | 3%
COC(=O)c1sccc1NC(=O)c1ccccc1 | 2.2% | x | -3.7 | -5% | 3% | -3.3 | 8%
COCCn1c(SCC(=O)c2c[nH]c3ccccc23)nnc1-c1ccncc1 | 0.8% | -1.6% | -1.7 | 15% | -12%[15.4 µM] | 4.8 | 15%
COCCCN1C(=O)C(O)=C(C(=O)c2ccc(C)o2)C1c1cccc(Br)c1 (stereo not drawn) | -3.9%[38.3 µM] | -1.0% | -0.3 | 11% | 13µM* | 3.0 | 19%
COc1cccc(NC(=O)Nc2nnc(COCCO)s2)c1 | -0.4% | -0.2% | -3.0 | x | x | x | x
CCNc1nc(NC(C)(C)C)nc(N2CCCC2)n1 | 3.6% | 3.0% | -3.0 | -11% | 16% | 6.4 | -7%
COc1ccc(NC(=S)NC(=O)c2cncc(Br)c2)c(OC)c1 | 12% | -3.4% | -0.7 | 6% | 8%[15.4 µM] | -0.9 | 9%
CN(C)CCCN=Cc1c(O)n(Cc2ccccc2)c(=O)c2ccccc12 | 0.6% | 25µM* | -0.4 | 3% | 0% | -0.2 | -7%
CCN(C(=O)c1cccnc1)c1ccccc1 | -2.2% | -0.7% | -4.3 | 12% | -28% | 0.5 | 8%
COC(=O)c1ccc(NC(=O)C2CC2)o1 | -1.2% | 14µM* | 0.5 | -3% | u | 4.5 | 15%
O=C(/C=C/c1ccc(Cl)cc1)N1CCOCC1 | 1.4% | -0.8% | -3.1 | 3% | -22% | 3.5 | -1%
COc1ccc(-c2cc(C(=O)Nc3ccc(Cl)cc3Cl)c3ccccc3n2)cc1OC | 11% | 20% | -4.4 | -6% | 4% | -0.9 | 35µM*
CSc1cccc(NC(=O)CSc2ccc(Cl)cc2)c1 | -1.6% | -1.4% | -1.0 | -21% | 5% | 2.9 | 8%
COCC(=O)N1CCC[C@@]2(CCN(C(=O)Nc3cccc(F)c3)C2)C1 | 0.6% | x | x | x | x | -10 | 11%
Nc1ccn(CC(=O)N[C@H](CO)Cc2c[nH]c3ccccc23)c(=O)n1 | 0.0% | -0.9% | -0.8 | 6% | -12% | x | x
Fc1cccc(/C=N/NC(=S)Nc2ccccc2Cl)c1 | 6.7% | -2.0% | -3.7 | 4% | u | 7.7 | 19%
NNC(=O)c1cc2ccccc2[nH]1 | 7.2% | x | -0.4 | 0% | 23% | 0.6 | -4%
CCCCn1c(N)c(N(C)C(=O)c2c(C)nn(-c3ccccc3)c2C)c(=O)[nH]c1=O | 2.9% | -5.3% | 1.3 | 11% | u | x | x
CC(=O)c1c(C)oc2ccc(NS(=O)(=O)c3ccc(O)c(C(=O)O)c3)cc12 | 1.6% | -4.5% | 0.1 | 1% | -8% | 4.7 | -22%
O=C([C@H](O)c1ccccc1)N1CCC[C@H]1CO | 0.8% | -5.7% | -3.9 | 0% | 24%[15.4 µM] | 1.8 | 10%
Oc1ccc2c(ccc3[nH]cnc32)c1 | -0.8% | -12% | 3.1 | -13% | -24% | 1.8 | 4%
CCCNC(=O)C1(CC2CC(c3ccccc3)=NO2)CCN(C(=O)c2cc(OCC)c(OCC)c(OCC)c2)CC1 (stereo not drawn) | -0.1% | 0.1% | 0.7 | -6% | x | x | x
COc1ccc(/C=N/OCC(=O)Nc2nc3ccccc3s2)cc1OC | 3.5% | 1.0% | -3.8 | 6% | -23%[15.4 µM] | -2.1 | -3%
CN(C)c1ncccc1-c1nc2ccccc2s1 | 8.7% | x | -1.7 | -13% | 8%[15.4 µM] | -0.5 | 12%
CN(Cc1ccccc1)C(=O)COC(=O)CNS(=O)(=O)c1ccc2ccccc2c1 | 1.8% | -2.5% | 0.8 | -19% | -8% | x | x
COc1ccc(C(=O)O)c(O)c1OC | -0.7% | x | x | x | x | -1.9 | 9%
CCCc1c(C(=O)N/N=C(\C)c2ccc3c(c2)OCO3)nnn1-c1nonc1N | 1.4% | -10% | -2.6 | x | 7% | x | x
COc1ccc(-c2cc3c(=O)n(CC(=O)NCCCN4CCC(N5CCCCC5)CC4)ncn3n2)cc1 | -0.2% | -8.5% | -2.5 | 18% | 28% | x | 9%
